Bioassay records as filed in PubChem BioAssay.
H5N1 CPE: MDCK cell protection from H5N1 avian flu; 96,000 compounds, 0.07% hits; cytopathic effect, luminescence, 72 h; hits give high values; no value below 0 was filed and about half of the inactive calls have no number; reference of the scale not given here; inhibition, % at 50 µM; AID 740, 2007; in the data active = inhibition above about 25%
* marks the source's active call; other numbers are inactive results.

How did Cc1ccccc1-c1noc(-c2ccccc2C(=O)N2CCCC2)n1 do in these assays?
H5N1 CPE: 0.6

What do the screens show for `CCOC(=O)N1CCN(CC(=O)Nc2c(C(=O)OC)[nH]c3ccc(Cl)cc23)CC1`?
H5N1 CPE: 3.5

What do the screens show for `O=C(Nc1scc(-c2ccc(F)cc2)c1C(=O)O)c1ccco1`?
H5N1 CPE: 0.1

What do the screens show for `O=C(CCN1CCCC1)Nc1cccc(Br)c1`?
H5N1 CPE: 0.3

Results for CC(=O)Nc1nc(C)c(Oc2ccccc2)c(=O)[nH]1 ?
H5N1 CPE: inactive

Results for CC(C)CCSc1nc(N2CCOCC2)c2c(c1C#N)CC(C)(C)OC2 ?
H5N1 CPE: 1.4

How did CCOC(=O)/C(O)=C/c1ncc(C(F)(F)F)cc1Cl do in these assays?
H5N1 CPE: inactive

How did C=CCn1c(-c2ccc(Cl)cc2)ccc(C#N)c1=O do in these assays?
H5N1 CPE: inactive

Results for COCCn1c(C)cc(C2=NNC(=Nc3ccccc3F)SC2)c1C ?
H5N1 CPE: inactive

Results for CCOc1ncccc1C(=O)OCC(=O)NCCc1ccccc1 ?
H5N1 CPE: inactive

What do the screens show for `O=C(O)/C=C/C(=O)Nc1ccccc1-c1ccccc1`?
H5N1 CPE: 0.5

What do the screens show for `CCC(c1nc2ccccc2c(=O)n1CCN1CCOCC1)N1C(=O)c2ccccc2C1=O` (stereo unspecified)?
H5N1 CPE: 0.6

What do the screens show for `COc1ccc(CCn2c(C)cc(C(=O)CSc3nnnn3-c3ccccc3)c2C)cc1`?
H5N1 CPE: inactive

Results for CCCC(c1nnnn1Cc1ccccc1)N1CCN(c2ccccc2OC)CC1 (stereo unspecified) ?
H5N1 CPE: 0.1

How did CCCCn1c(SCC(=O)Nc2cc(C)on2)nnc1-c1cccnc1 do in these assays?
H5N1 CPE: 0.2

What do the screens show for `CNc1nc(Cl)nc(NC(C)(C)C)n1`?
H5N1 CPE: 1.3

How did COc1ccc(Oc2c(Cl)cnn(-c3ccc(F)cc3)c2=O)cc1 do in these assays?
H5N1 CPE: 6.7

Results for CN(C)S(=O)(=O)N1CCN(Cc2ccccc2)CC1 ?
H5N1 CPE: 0.4

What do the screens show for `COc1ccc(C(=O)N(Cc2ccc(N(C)C)cc2)C2CCS(=O)(=O)C2)cc1` (stereo unspecified)?
H5N1 CPE: 0.3

What do the screens show for `O=C(Nc1cccc(F)c1)Nc1ccccn1`?
H5N1 CPE: 2.8

Results for CCCn1c(SCC(=O)O)nc2ccccc21 ?
H5N1 CPE: 0.1

What do the screens show for `CCOC(=O)N1CCN(Cc2ccccn2)CC1`?
H5N1 CPE: inactive

How did O=C(Nc1ccc(C(F)(F)F)cc1)c1cccnc1N1CCOCC1 do in these assays?
H5N1 CPE: 0.1

Results for O=c1[nH]c(NCCO)nc2ncn(Cc3ccccc3)c12 ?
H5N1 CPE: inactive

Results for COCCOCCOCCC(=O)NC1CC2CCC1(C)C2(C)C (stereo unspecified) ?
H5N1 CPE: inactive

How did NC(=O)C1CCN(Cc2nc3cc(Cl)ccc3c(=O)[nH]2)CC1 do in these assays?
H5N1 CPE: inactive

What do the screens show for `Cc1ccc(F)cc1NC(=O)c1cccc(N(C)C)c1`?
H5N1 CPE: 1.3

What do the screens show for `CC(C)(C)c1ccc(-c2cc(C(=O)NNC(=O)Nc3ccccc3)c3ccccc3n2)cc1`?
H5N1 CPE: inactive

Results for CCc1cccc(NC(=O)Cc2cn(C)c3ccccc23)c1 ?
H5N1 CPE: 0.5

What do the screens show for `CC(=NCCN1CCOCC1)c1c(O)n(-c2ccccc2C)c(=O)[nH]c1=O`?
H5N1 CPE: 0.1

What do the screens show for `CC1=Nc2ccccc2/C1=C/c1sc(=N)n(-c2nccs2)c1O`?
H5N1 CPE: 1.7

How did COC(=O)CNC(=O)c1nn(-c2cccc(OC)c2)c(=O)c2ccccc12 do in these assays?
H5N1 CPE: inactive

How did COc1ccc2c(CC(=O)Nc3c(C)n(C)n(-c4ccccc4)c3=O)coc2c1 do in these assays?
H5N1 CPE: inactive

Results for O=c1ccccn1Cc1ccccc1F ?
H5N1 CPE: 0.7

Results for CCOc1cc(/C=N/n2cnnc2)cc(Br)c1O ?
H5N1 CPE: inactive

What do the screens show for `Cc1oc(=O)c(NC(=O)c2ccccc2)cc1C(=O)c1ccccc1`?
H5N1 CPE: 0.1

Results for Cc1cccc(NC(=O)CSc2nnnn2-c2cccnc2)c1 ?
H5N1 CPE: 0.3

How did O=C(Nc1cccnc1N1CCOCC1)c1ccco1 do in these assays?
H5N1 CPE: 0.1

Results for CCN1C(=O)c2cccc3c(S(=O)(=O)Nc4ccccn4)ccc1c23 ?
H5N1 CPE: 2.7

What do the screens show for `Cc1ccc(Nc2ncnc3nc[nH]c23)cc1Cl`?
H5N1 CPE: 0.7

Among those listed so far, 6 contain an NH in an aromatic ring:
What do the screens show for `CCOC(=O)N1CCN(CC(=O)Nc2c(C(=O)OC)[nH]c3ccc(Cl)cc23)CC1`?
H5N1 CPE: 3.5

Results for CC(=O)Nc1nc(C)c(Oc2ccccc2)c(=O)[nH]1 ?
H5N1 CPE: inactive

Results for O=c1[nH]c(NCCO)nc2ncn(Cc3ccccc3)c12 ?
H5N1 CPE: inactive

How did NC(=O)C1CCN(Cc2nc3cc(Cl)ccc3c(=O)[nH]2)CC1 do in these assays?
H5N1 CPE: inactive

What do the screens show for `CC(=NCCN1CCOCC1)c1c(O)n(-c2ccccc2C)c(=O)[nH]c1=O`?
H5N1 CPE: 0.1

What do the screens show for `Cc1ccc(Nc2ncnc3nc[nH]c23)cc1Cl`?
H5N1 CPE: 0.7

More compounds follow:
Results for Cn1nc(-c2ccc(Cl)cc2)c2cc(C(=O)NCCN3CCOCC3)sc21 ?
H5N1 CPE: inactive

How did O=C1CCCc2c1nc(-c1cccc(Cl)c1)n2O do in these assays?
H5N1 CPE: 0.2

How did COC(=O)C1=C(C)N=c2s/c(=C3\C(=O)Nc4ccccc43)c(=O)n2C1c1ccccc1 (stereo unspecified) do in these assays?
H5N1 CPE: inactive

Results for Cc1occc1C(=O)NC1CCCc2ccccc21 (stereo unspecified) ?
H5N1 CPE: 5.8

What do the screens show for `COc1cc2c(=O)n(CC3CCCO3)c(=O)n(CC(=O)Nc3ccc(F)cc3F)c2cc1OC` (stereo unspecified)?
H5N1 CPE: 0.2

What do the screens show for `Cc1ccc(NC(=O)C2CCCN2C(=O)Oc2ccccc2)cc1` (stereo unspecified)?
H5N1 CPE: 0.4

What do the screens show for `CCn1c(C)c(C(C)=O)c(SC)nc1=S`?
H5N1 CPE: inactive

Results for O=C(NCC(c1cccnc1)N1CCOCC1)c1cccs1 (stereo unspecified) ?
H5N1 CPE: 1.6

How did COc1ccccc1N1CCN(Cc2nc3ccsc3c(=O)[nH]2)CC1 do in these assays?
H5N1 CPE: 0.9

What do the screens show for `COc1cc(OC)c(NC(=O)CCNC(=O)Cn2ccc3ccccc3c2=O)cc1Cl`?
H5N1 CPE: inactive

How did CC(C)CCNC(=O)CCn1nc(-c2ccccc2)ccc1=O do in these assays?
H5N1 CPE: 0.0

Results for COc1cccc(-n2c(SCC(=O)Nc3cc(C)on3)nc3ccccc3c2=O)c1 ?
H5N1 CPE: inactive

Results for CCCCCCCC(=O)N/N=C/c1cccnc1 ?
H5N1 CPE: 0.5

Results for Cc1cc(C)cc(OCC(=O)OCC(=O)Nc2ccc(Cl)cn2)c1 ?
H5N1 CPE: inactive

What do the screens show for `CSc1nc(C)c(Cl)c(C)c1C#N`?
H5N1 CPE: 0.2

What do the screens show for `C[N+](C)(C)CCCC(=O)c1ccc2c(c1)OCO2`?
H5N1 CPE: inactive

How did O=C(NCCCn1ccnc1)c1cc(C2CC2)on1 do in these assays?
H5N1 CPE: 0.7

Results for O=C(OC(C(=O)NC1CCCC1)c1ccncc1)C1=Cc2ccccc2OC1 (stereo unspecified) ?
H5N1 CPE: 1.6

How did CCCN1Cc2cccc(C(=O)N3CCN(c4ccc(F)cc4)CC3)c2C1=O do in these assays?
H5N1 CPE: 0.2

How did CCC(C)(C)NC(=O)C(c1cccn1C)N(C(=O)Cn1nnc2ccccc21)c1ccc(OC)cc1 (stereo unspecified) do in these assays?
H5N1 CPE: 0.5

Results for COc1cc(CN2CCN(S(=O)(=O)c3ccc(NC(C)=O)cc3)CC2)cc(OC)c1O ?
H5N1 CPE: inactive

What do the screens show for `CC(C)C(NS(=O)(=O)c1cccc2nsnc12)C(=O)NCc1ccc2c(c1)OCO2` (stereo unspecified)?
H5N1 CPE: 0.7

What do the screens show for `Cc1cc(F)ccc1NCc1ccncc1`?
H5N1 CPE: inactive

Results for Cc1cccc2cc3c(NC(=O)C(C)C)nn(C)c3nc12 ?
H5N1 CPE: 0.3

Results for COC(=O)Cc1cc(=O)n2[nH]c(C)c(-c3ccccc3)c2n1 ?
H5N1 CPE: inactive

Results for Cc1[nH]n2c(=O)cc(C(C)(C)C)nc2c1-c1ccccc1 ?
H5N1 CPE: 3.9

What do the screens show for `CC(C)OCCCNC(=O)c1ccc(NC(=O)C2CCCO2)cc1` (stereo unspecified)?
H5N1 CPE: 0.2

Results for COc1ccc(NC(=O)CSc2nnc(Cn3c(=O)sc4ccccc43)n2C)c(OC)c1 ?
H5N1 CPE: 0.8

What do the screens show for `Cc1nc2ccccn2c1C(=O)NC1CCCCC1`?
H5N1 CPE: 1.3

What do the screens show for `COc1ccc(-c2noc(COc3ccc4ccccc4c3Br)n2)cc1OC`?
H5N1 CPE: 0.5

How did CC1CCC(NCCc2ccc3c(c2)OCO3)CC1 (stereo unspecified) do in these assays?
H5N1 CPE: inactive

Results for COc1ccc(C(C(=O)NC2CCCC2)N(C(=O)c2ccoc2C)c2cc(C)cc(C)c2)cc1 (stereo unspecified) ?
H5N1 CPE: inactive

Results for O=C(O)C1CCCCC1C(=O)Nc1ccc(F)cc1F (stereo unspecified) ?
H5N1 CPE: 0.2

How did CCc1ccc(C(=O)COC(=O)c2cnccn2)cc1 do in these assays?
H5N1 CPE: 0.5

Results for COc1ccc(C(=O)NCC(=O)Nc2ccc(F)cc2)cc1OC ?
H5N1 CPE: inactive

What do the screens show for `COc1ccc(OC)c(CNC(=O)C2CCCN(c3nc4ccccc4o3)C2)c1` (stereo unspecified)?
H5N1 CPE: inactive

How did Cc1ccc(-n2c(SCC3CCCCO3)nnc2-c2ccco2)cc1 (stereo unspecified) do in these assays?
H5N1 CPE: inactive

Results for COc1ccc(OC)c(NC(=S)NN2CCOCC2)c1 ?
H5N1 CPE: 0.4

Results for NC(=O)CSc1nnc(-c2cc(-c3cccs3)nc3ccccc23)o1 ?
H5N1 CPE: 0.8

How did COc1ccc(-c2cc3ccccc3n2CC(O)CNC(CO)(CO)CO)cc1 (stereo unspecified) do in these assays?
H5N1 CPE: inactive

How did COc1cc(C2N(c3cccc(Cl)c3)C(=O)C3CCCN32)cc(OC)c1OC (stereo unspecified) do in these assays?
H5N1 CPE: inactive

How did Cc1cc(Cl)c(S(=O)(=O)NC2CCCC2)cc1OCC(=O)NC1CCCCC1 do in these assays?
H5N1 CPE: 6.2

How did CS(=O)(=O)N1CCC(C(=O)Nc2c(F)cccc2F)CC1 do in these assays?
H5N1 CPE: 0.5

Results for CCOC(=O)c1c(NC(=O)CSc2nc3ccccc3s2)sc(C)c1C ?
H5N1 CPE: inactive

How did O=C(Cn1c(=O)[nH]n(-c2ccccc2)c1=O)N1CCCc2ccccc21 do in these assays?
H5N1 CPE: 1.9

How did CCOC(=O)N1CCN(C(=O)CSc2nnc(-c3cccc(Cl)c3)o2)CC1 do in these assays?
H5N1 CPE: inactive

How did O=c1c(Cc2ccc(Cl)cc2)c(O)ccn1Cc1cccc(Cl)c1 do in these assays?
H5N1 CPE: inactive

What do the screens show for `O=S(=O)(Cc1ccccc1Cl)CC(O)COc1ccccc1Cl` (stereo unspecified)?
H5N1 CPE: 0.1

How did COC(=O)Cc1c(C)nc2nc(-c3ccccc3)[nH]n2c1=O do in these assays?
H5N1 CPE: 0.7

How did CCOC(=O)CCNC(=O)c1ccccc1Br do in these assays?
H5N1 CPE: inactive

How did O=C(COC(=O)c1ccccc1O)Nc1ccc(OC(F)F)cc1 do in these assays?
H5N1 CPE: inactive

Results for COc1ccccc1CC(=O)Nc1ccc(-c2noc(COc3ccc(Br)cc3)n2)cc1 ?
H5N1 CPE: inactive

Results for Cn1nc(CC(=O)Nc2ccc3c(c2)CCC3)c2ccccc2c1=O ?
H5N1 CPE: inactive

Results for CSc1nnc(NC(=O)C2CCCCC2)s1 ?
H5N1 CPE: inactive

Results for CCOC(=O)c1sc2nccc(N(C)C)c2c1N=CNOCc1ccccc1 ?
H5N1 CPE: inactive

What do the screens show for `N#C/C(=C(\O)c1ccco1)c1ccccn1`?
H5N1 CPE: 11

What do the screens show for `Cc1ccc(C(=O)/C=C2\NCC(C)NC2=O)cc1` (stereo unspecified)?
H5N1 CPE: inactive

Results for Brc1ccccc1Cn1c(-c2cscn2)nc2ccccc21 ?
H5N1 CPE: 0.7

What do the screens show for `CC(=O)Nc1cc2nn(-c3ccccc3)nc2cc1Cl`?
H5N1 CPE: inactive

How did O=S1CCCSC1c1cccnc1 (stereo unspecified) do in these assays?
H5N1 CPE: 0.7

Pulled by structure from the entries so far (3):
How did CCOC(=O)CCNC(=O)c1ccccc1Br do in these assays?
H5N1 CPE: inactive

Results for Cn1nc(CC(=O)Nc2ccc3c(c2)CCC3)c2ccccc2c1=O ?
H5N1 CPE: inactive

How did CS(=O)(=O)N1CCC(C(=O)Nc2c(F)cccc2F)CC1 do in these assays?
H5N1 CPE: 0.5

Carrying on:
What do the screens show for `Cn1c(=O)n(C)c2cc(NC(=O)CSc3nnc(-c4ccccc4O)n3-c3ccccc3)ccc21`?
H5N1 CPE: 2.2

Results for CCC(NC(=O)c1ccccc1O)c1ccccc1 (stereo unspecified) ?
H5N1 CPE: 0.3

How did COc1ccc(OCCCCOc2ccccc2Cl)cc1 do in these assays?
H5N1 CPE: inactive

Results for CCC(=O)Nc1cccc(NC(=O)CSc2nnnn2C)c1 ?
H5N1 CPE: inactive

Results for Cc1ccc(S(=O)(=O)N/N=C/c2c(C)nn(-c3ccccc3)c2C)cc1 ?
H5N1 CPE: 0.4

Results for Cc1ccc(Cl)cc1N1CCN(S(=O)(=O)c2c(C)[nH]c(=O)[nH]c2=O)CC1 ?
H5N1 CPE: inactive

The list is partial, so the mix of outcomes need not match the whole.
